HIV TAR-Tat – HIV-1 TAR-Tat binding disruption. HIV-1 TAR RNA, Tat peptide displacement FRET; active compounds read high. z-score (no concentration beside the values). actives 0.6% (n = 100,000);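 further: score is relative to mean and SD of negative controls; some compounds called inactive have numbers as strong as hits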
CDC25B-CDK2 inh – human CDC25B-CDK2/CyclinA binding inhibition | actives 0.72% (n = 94,000) | HTRF CDC25B-CDK2/CyclinA binding, anti-His/anti-Flag; active compounds read high | AID 1259370 | z-score (test concentration not listed) | P30305+P24941;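 further: score is relative to mean and SD of negative controls; strong numbers were not always called active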
* hit, by the source's call.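 How the source made its calls: active means z-score from 3 up in half or more of its runs; inactive means the rest.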

How did Cn1cc(NC(=O)NCCCN2CCOCC2)c2ccccc2c1=O do in these assays?
HIV TAR-Tat: -1.4

Results for O=C(CCCc1nnc2n3nc(-c4ccccc4)nc3c3ccccc3n12)NCCCN1CCOCC1 ?
HIV TAR-Tat: 1.3; CDC25B-CDK2 inh: -1.2

What do the screens show for `CC[C@@H](C(=O)O)C1O[C@@H]([C@@H](C)[C@H](O)[C@H](C)C(=O)[C@H](CC)[C@H]2O[C@]3(C=C[C@@H](O)[C@]4(CC[C@@](C)([C@H]5CC[C@](O)(CC)[C@H](C)O5)O4)O3)[C@H](C)C[C@@H]2C)[C@@H](C)C[C@@H]1C` (some centres not stated)?
HIV TAR-Tat: 3

What do the screens show for `O=c1oc2c3c(ccc2c2ccccc12)OCN(CCc1ccc(F)cc1)C3`?
HIV TAR-Tat: -2.6; CDC25B-CDK2 inh: 0.4

How did O=S(=O)(Nc1ccc(F)c(F)c1)c1ccc(Br)cc1 do in these assays?
CDC25B-CDK2 inh: -1.2

Results for CCC(C)NC(=O)C(=O)Nc1c2c(nn1-c1ccccc1)CS(=O)(=O)C2 (configuration not stated) ?
HIV TAR-Tat: 0.57

Results for OCCNCc1cccc(Oc2nnnn2-c2ccccc2)c1 ?
HIV TAR-Tat: 0.8

Results for c1ccc(CC2CCN(c3nc4ccccc4n4nnnc34)CC2)cc1 ?
HIV TAR-Tat: 0.73; CDC25B-CDK2 inh: -0.94

How did Cc1cc(C(=O)N2CCn3c2nc2ccccc23)n[nH]1 do in these assays?
HIV TAR-Tat: -0.06

Results for CS(=O)(=O)C/C(N)=N/OC(=O)c1ncc(C(F)(F)F)cc1Cl ?
CDC25B-CDK2 inh: 1.1

Results for O=C(Oc1ccc(Cl)cc1)c1ccc2snnc2c1 ?
HIV TAR-Tat: 0.04; CDC25B-CDK2 inh: 0.54

What do the screens show for `O=S(=O)(c1ccc(F)cc1)N1CCc2ccccc2C1`?
CDC25B-CDK2 inh: -0.67

Sorted by SMILES length (high to low): three of the compounds above.
Results for CS(=O)(=O)C/C(N)=N/OC(=O)c1ncc(C(F)(F)F)cc1Cl ?
CDC25B-CDK2 inh: 1.1

Results for c1ccc(CC2CCN(c3nc4ccccc4n4nnnc34)CC2)cc1 ?
HIV TAR-Tat: 0.73; CDC25B-CDK2 inh: -0.94

How did O=S(=O)(Nc1ccc(F)c(F)c1)c1ccc(Br)cc1 do in these assays?
CDC25B-CDK2 inh: -1.2

Returning to the listing with the 4 entries that preceded the break.
How did Cc1cc(C(=O)N2CCn3c2nc2ccccc23)n[nH]1 do in these assays?
HIV TAR-Tat: -0.06

Results for CS(=O)(=O)C/C(N)=N/OC(=O)c1ncc(C(F)(F)F)cc1Cl ?
CDC25B-CDK2 inh: 1.1

Results for O=C(Oc1ccc(Cl)cc1)c1ccc2snnc2c1 ?
HIV TAR-Tat: 0.04; CDC25B-CDK2 inh: 0.54

What do the screens show for `O=S(=O)(c1ccc(F)cc1)N1CCc2ccccc2C1`?
CDC25B-CDK2 inh: -0.67

Results for CC1=C(C)CC2C(=O)N(c3ccccc3F)C(=O)C2C1 (configuration not stated) ?
HIV TAR-Tat: 0.02; CDC25B-CDK2 inh: 0.91

Results for CCOC(=O)C1=C(C)OC(=O)C1(NS(=O)(=O)c1ccccc1)C(F)(F)F (configuration not stated) ?
CDC25B-CDK2 inh: 1.3

How did O=[N+]([O-])c1ccccc1SCc1csc2ccccc12 do in these assays?
CDC25B-CDK2 inh: 0.05

What do the screens show for `Cc1noc(C)c1CCNC(=O)C1CCN(c2nn3c(=O)c4c(nc3s2)CCCC4)CC1`?
HIV TAR-Tat: -0.52

How did O=C(Nc1cccs1)Nc1ccc(F)cc1F do in these assays?
HIV TAR-Tat: -0.87; CDC25B-CDK2 inh: -2.2

How did Cc1cc(S(=O)(=O)[C@H]2CS(=O)(=O)C[C@@H]2NCc2ccco2)ccc1F do in these assays?
HIV TAR-Tat: -0.03; CDC25B-CDK2 inh: -1.1

How did O=C(Nc1nnc(-c2ccccc2F)s1)C(=O)c1c[nH]c2ccccc12 do in these assays?
HIV TAR-Tat: 1.6; CDC25B-CDK2 inh: -2.1

How did Cc1ccc(C(O)(c2ccccc2)c2nccn2C)cc1 (configuration not stated) do in these assays?
HIV TAR-Tat: 1.4; CDC25B-CDK2 inh: -1.3

How did CCN(Cc1cc2cc(C)ccc2[nH]c1=O)S(C)(=O)=O do in these assays?
HIV TAR-Tat: 3.2; CDC25B-CDK2 inh: -3.2

What do the screens show for `COc1ccc(-c2cnc3cc(-c4ccc(Cl)cc4)nn3c2N)cc1OC`?
HIV TAR-Tat: -1.9; CDC25B-CDK2 inh: -0.05

Results for CCN1CCN(C(c2ccc(C(C)C)cc2)c2sc3nc(C)nn3c2O)CC1 (configuration not stated) ?
CDC25B-CDK2 inh: -1

How did Cn1c2ccccc2c2c(C(=O)N3CCCC3)cn(C3CCCCC3)c(=O)c21 do in these assays?
CDC25B-CDK2 inh: -0.11

What do the screens show for `OCCNc1nc2nc(Cl)nc(N3CCCCC3)c2n1Cc1ccccc1`?
CDC25B-CDK2 inh: -0.14

How did O=C(CCS(=O)(=O)c1ccc2c(c1)NC(=O)CS2)NCc1ccc2c(c1)OCO2 do in these assays?
HIV TAR-Tat: -1.4

How did CC1=C(C(=O)OCCOC(C)C)C(c2ccc(F)cc2)C2=C(CC(c3cccs3)CC2=O)N1 (configuration not stated) do in these assays?
HIV TAR-Tat: 1.1; CDC25B-CDK2 inh: -1

What do the screens show for `c1ccc(N2CCN(c3ncnc4c3nc3n4CCCCC3)CC2)cc1`?
HIV TAR-Tat: -0.46

Results for O=C(NCCc1cccs1)C1CCN(c2nnc(N3CCCC3=O)s2)CC1 ?
HIV TAR-Tat: 0.9

Results for CC(NC(=O)C1CCN(C(=O)c2cc3sccc3n2C)CC1)c1ccccc1 (configuration not stated) ?
CDC25B-CDK2 inh: -1.9

How did CC1(C)Cc2c(c(N3CCOCC3)nc3sc4c(NCCc5ccccc5)ncnc4c23)CO1 do in these assays?
CDC25B-CDK2 inh: -1.1

What do the screens show for `CN(C(=O)c1cc2ccc3cccnc3c2[nH]1)c1ccccc1Cl`?
HIV TAR-Tat: -0.38

How did CN1CCN(C(=O)c2oc3ccccc3c2NC(=O)CC2CCCC2)CC1 do in these assays?
HIV TAR-Tat: 0.21; CDC25B-CDK2 inh: -1.4

What do the screens show for `Cc1c(C(=O)NCc2ccoc2)oc2ccc3c(c12)C(=O)CC(C)(C)O3`?
CDC25B-CDK2 inh: -2

How did O=C(c1cccs1)N1CCN(c2nc3cc(Br)ccc3n3cccc23)CC1 do in these assays?
HIV TAR-Tat: 0.81; CDC25B-CDK2 inh: -1.9

How did Oc1ccc2ccccc2c1CN1CCN(c2ccc(F)cc2)CC1 do in these assays?
HIV TAR-Tat: -0.09; CDC25B-CDK2 inh: -0.54

What do the screens show for `Oc1ccc([C@H]2Oc3cc(O)cc(O)c3C[C@H]2O)cc1`?
HIV TAR-Tat: -0.59

Results for CCN(CCCc1ccccc1)CCCc1ccccc1 (tested in a mixture with another compound) ?
HIV TAR-Tat: 0.95

Results for CC1=C(c2ccc(F)cc2)S(=O)(=O)NC1=NCCCN1CCN(c2ccc(F)cc2)CC1 ?
HIV TAR-Tat: -0.33

How did COc1cccc(C(=O)Cn2c(=O)n(C3CCCC3)c(=O)c3cc(OC)c(OC)cc32)c1 do in these assays?
HIV TAR-Tat: 0.55; CDC25B-CDK2 inh: -2

How did O=c1ccc(-c2ccc(S(=O)(=O)NCCc3ccco3)s2)n[nH]1 do in these assays?
HIV TAR-Tat: 0.12

Results for CCCN(CCC)CCNS(=O)(=O)c1ccc(-c2ccc(=O)[nH]n2)s1 ?
HIV TAR-Tat: 1.5

What do the screens show for `CC(=O)Nc1c2n(c3ccc(F)cc13)CC(C)(C(=O)NC1CCCCC1)N(C1CCCCC1)C2=O` (configuration not stated)?
HIV TAR-Tat: 0.79

Results for N#Cc1nc(/C=C/c2cccs2)oc1N1CCN(C(=O)Cc2cccc3ccccc23)CC1 ?
HIV TAR-Tat: 0.33; CDC25B-CDK2 inh: -1.9

Results for COc1ccc2c(c1)C=C(C(=O)Nc1ccc(OC)cc1OC)CO2 ?
HIV TAR-Tat: 0.39

Results for O=c1ccc(-c2ccc(Cl)cc2)nn1CCNS(=O)(=O)c1cc(F)ccc1F ?
HIV TAR-Tat: 0.08

What do the screens show for `CN1CCN(CCC=C2c3ccccc3Sc3ccc(S(=O)(=O)N(C)C)cc32)CC1`?
HIV TAR-Tat: 0.71

Results for Cc1ccc(NC(=O)CSc2nc(-c3ccco3)nc3cc(=O)[nH]n23)cc1 ?
HIV TAR-Tat: -1.8

Results for Cc1ccc(CNc2nc(NCCO)nc3c2cnn3C)cc1 ?
HIV TAR-Tat: 1.5

Results for O=C1COc2ccc(S(=O)(=O)N3CCC(C(=O)N4CCCCC4)CC3)cc2N1 ?
HIV TAR-Tat: 1.9

How did CCn1nnc2cc(-c3noc(C4CC(=O)N(c5ccccc5)C4)n3)ccc21 (configuration not stated) do in these assays?
HIV TAR-Tat: 1.8

What do the screens show for `CC(C)(C)OC(=O)N[C@@H](Cc1ccccc1)C(=O)NNC(=S)NCC1CC1`?
CDC25B-CDK2 inh: -0.97

Results for COc1cc2c(NC3CCN(C)CC3)cc(N3CCCCN(C)CC3)cc2cc1OCCOCCN(C)C ?
HIV TAR-Tat: 8.3*

What do the screens show for `CN(C)CCN(C(=O)CCOc1ccccc1)c1nc2c(Cl)cccc2s1`?
HIV TAR-Tat: 0.27

Results for Cc1nn(CCS(=O)(=O)c2ccc(Cl)cc2)c(C)c1Br ?
CDC25B-CDK2 inh: 0.11

What do the screens show for `Cc1ccc(C)n1-c1nnc(N2CCC(C(=O)N3CCOCC3)CC2)s1`?
HIV TAR-Tat: -0.36; CDC25B-CDK2 inh: -0.24

Results for Cc1nc(-c2ccc(S(=O)(=O)NCC3CCCO3)cc2)co1 (configuration not stated) ?
HIV TAR-Tat: 0.54

How did Cc1ccc(CCNc2nn3nnnc3c3ccccc23)cc1 do in these assays?
HIV TAR-Tat: -0.01

How did COc1ccc(C2CC(=O)C3=C(C2)NC(=O)CC3c2cccc(OC)c2OC)cc1 (configuration not stated) do in these assays?
HIV TAR-Tat: -1.1; CDC25B-CDK2 inh: -1.2

What do the screens show for `COc1cc2ncnc(NNC(=O)c3cccs3)c2cc1OC`?
CDC25B-CDK2 inh: -0.77

How did CCOC(=O)CSc1nc(C)c2ccc(C)cc2n1 do in these assays?
HIV TAR-Tat: 2.3; CDC25B-CDK2 inh: -0.72

Results for CCCCCOC(=O)C1=C(C)NC2=C(C(=O)CCC2)C1c1cc(Br)c(O)c(OC)c1 (configuration not stated) ?
HIV TAR-Tat: -1; CDC25B-CDK2 inh: -2.6

What do the screens show for `CCOC(=O)n1c(=O)oc2cc(Br)ccc21`?
HIV TAR-Tat: 1.9; CDC25B-CDK2 inh: -1.7

What do the screens show for `COc1ccc(Nc2c(-c3ccsc3)nc3ncccn23)cc1OC`?
HIV TAR-Tat: -0.5; CDC25B-CDK2 inh: -1.2

Results for C=CCn1c(=O)c2ccc(C(=O)NCc3ccc4c(c3)OCO4)cc2n(Cc2ccccc2)c1=O ?
HIV TAR-Tat: -2.4; CDC25B-CDK2 inh: -2.3

What do the screens show for `CC(=O)Nc1cccc(SSc2cccc(NC(C)=O)c2)c1`?
CDC25B-CDK2 inh: -11

Results for O=C(Nc1ccc(F)cc1)N1CCC(CN2CCOCC2)CC1 ?
HIV TAR-Tat: 2.1

Results for O=C(Cc1scnc1-c1cccs1)N1CCN(c2ncccn2)CC1 ?
HIV TAR-Tat: -0.29; CDC25B-CDK2 inh: -2.4

Results for COC(=O)c1ccc(OC)c(CN2CCCN(Cc3ccc(OC)cc3)S2(=O)=O)c1 ?
HIV TAR-Tat: 1.2

How did COC(=O)C1C2C=CC3(CN(c4ccccc4C)C(=O)C13)O2 (configuration not stated) do in these assays?
HIV TAR-Tat: 1.2; CDC25B-CDK2 inh: -0.21

How did COC(=O)c1cc(S(=O)(=O)NCc2ccc(S(N)(=O)=O)cc2)oc1C do in these assays?
CDC25B-CDK2 inh: -2

What do the screens show for `CCn1ccc2cc(S(=O)(=O)N3CCC(C(=O)O)CC3)ccc21`?
HIV TAR-Tat: 0; CDC25B-CDK2 inh: 1.2

How did CCCC(=O)Nc1sc2c(c1C(=O)NC)CCC2 do in these assays?
HIV TAR-Tat: -0.57

How did CCOc1cc(C2NC(=O)NC(O)(C(F)(F)F)C2C(=O)c2cccs2)ccc1O (configuration not stated) do in these assays?
CDC25B-CDK2 inh: -1.1

Results for O=c1[nH]c2ccc(S(=O)(=O)N3CCN(c4ccccc4F)CC3)cc2[nH]c1=O ?
HIV TAR-Tat: 0.79; CDC25B-CDK2 inh: -0.27

What do the screens show for `Cc1csc2ncc(C(=O)Nc3cc(F)ccc3F)c(=O)n12`?
CDC25B-CDK2 inh: -2.5

What do the screens show for `Cc1ccccc1OC(=O)CSc1nnc(-c2ccc3c(c2)OCO3)o1`?
HIV TAR-Tat: 0.88; CDC25B-CDK2 inh: -3.6

Results for CC1=C(c2ccc(C)cc2)S(=O)(=O)N=C1N1CCCC1 ?
HIV TAR-Tat: -0.4; CDC25B-CDK2 inh: -1

What do the screens show for `Cc1ccccc1NS(=O)(=O)c1cc2c(cc1C)N(C)CCO2`?
HIV TAR-Tat: 3.2

Results for COc1cc2c(c(OC)c1)C(c1ccc(N(C)C)cc1)C1=C(CC(C)(C)CC1=O)N2 (configuration not stated) ?
HIV TAR-Tat: -1.2; CDC25B-CDK2 inh: -1.6

Results for O=C(CCS(=O)(=O)c1cc2c3c(c1)CCN3C(=O)CC2)NC1CCCc2ccccc21 (configuration not stated) ?
HIV TAR-Tat: 0.78

What do the screens show for `O=C(CSc1nnnn1-c1ccccc1)Nc1nccs1`?
HIV TAR-Tat: 1.6; CDC25B-CDK2 inh: -2.4

Results for CN(C)NC(=O)Nc1cc(C(C)(C)C)n(-c2c(Cl)cc(Cl)cc2Cl)n1 ?
CDC25B-CDK2 inh: -1.8

In the list so far, these have a tert-butyl group:
What do the screens show for `CC(C)(C)OC(=O)N[C@@H](Cc1ccccc1)C(=O)NNC(=S)NCC1CC1`?
CDC25B-CDK2 inh: -0.97

Results for CN(C)NC(=O)Nc1cc(C(C)(C)C)n(-c2c(Cl)cc(Cl)cc2Cl)n1 ?
CDC25B-CDK2 inh: -1.8
